Bioassay records: PubChem, National Center for Advancing Translational Sciences (NCATS)
TRPV1 potentiator: human TRPV1 potentiation; AID 540277; TRPV1-expressing cells, Fluo-8 calcium influx, capsaicin EC20 potentiation; host cell line not named in the record; control for the full effect not named in the record; actives 0.02% (n = 320,000); Q8NER1; potentiation, % at 8.33 µM; active means potentiation above 80%; inconclusive means 30% to 80%; inactive means below 30%; further: 0% is about no effect
Target sequence (Q8NER1 whole entry, looked up): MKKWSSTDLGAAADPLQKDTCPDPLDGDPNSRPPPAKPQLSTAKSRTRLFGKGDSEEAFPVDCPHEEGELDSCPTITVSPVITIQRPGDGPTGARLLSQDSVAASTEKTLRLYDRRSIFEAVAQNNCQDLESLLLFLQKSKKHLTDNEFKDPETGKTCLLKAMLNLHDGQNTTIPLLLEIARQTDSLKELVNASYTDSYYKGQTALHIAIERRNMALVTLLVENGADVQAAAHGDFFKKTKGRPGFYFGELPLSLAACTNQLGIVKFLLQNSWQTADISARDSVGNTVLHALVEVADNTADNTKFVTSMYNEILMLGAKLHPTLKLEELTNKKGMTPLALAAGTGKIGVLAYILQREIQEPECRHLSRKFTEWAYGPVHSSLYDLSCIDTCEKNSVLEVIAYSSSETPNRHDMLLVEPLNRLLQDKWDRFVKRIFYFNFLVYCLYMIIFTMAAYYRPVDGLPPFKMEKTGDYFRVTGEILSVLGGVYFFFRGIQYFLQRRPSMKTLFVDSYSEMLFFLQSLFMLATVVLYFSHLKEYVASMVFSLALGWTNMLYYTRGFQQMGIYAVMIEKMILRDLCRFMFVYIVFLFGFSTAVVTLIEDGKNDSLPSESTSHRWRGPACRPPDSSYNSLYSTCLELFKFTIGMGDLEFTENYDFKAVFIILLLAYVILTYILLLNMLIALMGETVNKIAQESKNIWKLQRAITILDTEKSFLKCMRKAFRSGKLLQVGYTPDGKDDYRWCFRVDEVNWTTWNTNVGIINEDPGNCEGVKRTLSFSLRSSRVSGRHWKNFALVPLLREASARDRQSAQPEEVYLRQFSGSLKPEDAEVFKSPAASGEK
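Fluo-8 calcium influx in TRPV1-expressing cells, kinetic read (ex 480/em 520 nm). Compound added and read 3 min for agonist activity, followed by capsaicin at EC20 final and 2 min further read for enhancement.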
Sfp inh: Sfp phosphopantetheinyl transferase inhibition; Q9F4F7; Biochemical Sfp PPTase activity, qHTS; Potency, µM, for inactives: max response, negative = inhibition, usual class: inhibitors; actives 3.5% (n = 310,000); active means well fitted inhibition curve with a large enough effect; inconclusive means small, poorly fitted or top-dose-only effect, or another doubt; inactive means no such curve, though single readings can be large or run the other way;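 further: the enzyme is Sfp with the accession as filed and its product quenches rhodamine fluorescence; potency means the concentration at half of the fitted maximal effect; 0% = enzyme reaction without inhibitor and -100% = no enzyme wells; top concentration of the series not given in the record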
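Fluorescence-quenching assay: 15 nM Sfp-PPTase preincubated 15 min at room temperature with compound, then 5 uM rhodamine-CoA and 12.5 uM BHQ-2-labelled YbbR peptide added. Fluorescence (ex 525/em 598 nm) read at start and after 30 min; difference gives rate.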
Menin MLL FP FL: inhibitors of human menin-MLL interaction, wild-type MLL peptide; 290,000 tested, under 10 active; FP activity change, % at 61.4 µM; Fluorescence polarization, fluorescein-MLL peptide displacement from menin; inconclusive = falling polarisation curve, or a change in total fluorescence; inactive = total fluorescence flat and polarisation flat or rising; no compound was filed as active; the % refers to the polarisation; negative = inhibition;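 further: % of control where 0% means no effect; inhibitors lower the polarisation; unlabelled MLL peptide was the positive control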
ClpP mod: qHTS Assay for Activators of ClpP | ATP-dependent Clp protease proteolytic subunit (Bacillus subtilis (strain 168)), P80244 | purified B. subtilis ClpP, FRET peptide cleavage, 20 min | Potency, µM (series often up to 57.5 µM), inactives show top-dose activity change, negative = active | actives 1.9% (n = 340,000) | AID 651965, 2013; active = well fitted falling curve with a large enough effect; inconclusive = small, poorly fitted or top-dose-only effect; inactive = no such curve, though single readings can be large or run the other way; further: potency means the concentration at half of the fitted maximal effect; the source files actives as falling curves though it sought activators and does not explain the sign; nearly all actives have a fitted effect of over 65% in size; many hits overshoot -100%
Target sequence (P80244 whole entry, looked up): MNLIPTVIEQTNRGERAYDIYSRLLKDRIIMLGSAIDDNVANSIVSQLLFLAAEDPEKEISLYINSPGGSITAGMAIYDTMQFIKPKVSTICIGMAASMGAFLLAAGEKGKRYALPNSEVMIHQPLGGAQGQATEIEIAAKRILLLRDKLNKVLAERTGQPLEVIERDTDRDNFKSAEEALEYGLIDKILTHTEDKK
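Buffer: 100 mM Tris/HCl pH8, 100 mM KCl, 0.05% low protease BSA, 2.5% glycerol, 0.01% Tween-20. ClpP 10 microg/mL final; 20 min RT; delta FRET normalized to ADEP and DMSO controls.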
CtBP-E1A blk: blocks the CtBP interaction with E1A; AlphaScreen GST-E1A/His-CtBP binding, 1536-well; active compounds read low; control for the full effect not named in the record; AID 651724; actives 0.49% (n = 340,000); activity change, % (no concentration beside the values); in the data active means activity change below about -65%; inconclusive means about -30% to -65%; inactive means above about -30%; further: on the % scale 0 is the no-effect control and ±100 the full control effect
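Homogeneous bead-based format: GST-tagged E1A captured on glutathione donor beads, His-tagged CtBP on nickel acceptor beads; compounds precede bead addition by 2 h at 37 °C.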
gsp ag: gsp mutant agonism; gsp mutant cells, cAMP HTRF, 30 min; control for the full effect not named in the record; Potency, µM (titrated, usually from 76.9 µM), inactives show at the highest dose activation (cAMP increase), usual class: activators; actives 0.13% (n = 340,000); AID 624287; active = well fitted activation curve with a large enough effect; inconclusive = small, poorly fitted or top-dose-only effect, or another doubt; inactive = no such curve, though single readings can be large or run the other way; cell line not stated here;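 further: phosphodiesterase inhibitor Ro 20-1724 added with compounds to block cAMP breakdown; potency means the concentration at half of the fitted maximal effect; nearly all actives have a fitted effect of over 60% in size; about a fifth of the inactives were tested at one dose only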
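Cells stably selected in G418 were plated at 2000/well, grown 16-24 hr, then given compounds in DMSO with the PDE inhibitor […] (300 uM solution added) for 30 min at 37C; cAMP was read by HTRF.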
gsp antag: gsp mutant antagonism; Potency, µM (doses to about 76.9 µM), for the others: at the highest dose activity change, negative = inhibition, actives largely listed as inhibitors; actives 0.4% (n = 340,000); gsp-mutant cells, cAMP HTRF, 30 min; control for the full effect not named in the record; active = falling curve of any shape with a large fitted effect; inconclusive = falling curve, mostly with a smaller effect; inactive = flat or rising curve; cell line not stated here;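 further: intracellular cAMP measured with PDE inhibitor Ro 20-1724 present during compound exposure; potency means the concentration at half of the fitted maximal effect; on the % scale 0 is the no-effect control and ±100 the full control effect; nearly all actives have a fitted effect of over 65% in size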
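G418-selected cells were plated in DMEM/10% FBS for 16-24 h at 37C, then treated with compounds plus the PDE inhibitor […] (300 uM solution added) for 30 min at 37C. Intracellular cAMP was measured by HTRF after 30 min lysis at room temperature.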
* marks the source's active call; other numbers are inactive results; ? = inconclusive; · = not tested or not shown; & = joins results of further samples; [ ] = remark or other dose.

nr	Compound	TRPV1 potentiator	Sfp inh	Menin MLL FP FL	ClpP mod
1	Cc1ccc(-c2nnn(CC(=O)N3CCCCC3)n2)o1	-2	18%	-2.7	-1.6%
2	COCCNC(=O)C1CCCN(S(=O)(=O)c2ccc3c(c2)CC(C)N3C(=O)C2CC2)C1 (centres undefined)	-10	11%	1.8	0.9%
3	CCCOc1ccc(C2=CSC3=NCCN23)cc1Cl	?	16%	0.6	-2.4%
4	COc1cccc(-n2ccnc2SCC(=O)NCc2ccccc2)c1	-11	13%	4.1	-3.1%
5	CC(C)(C)NC(=O)NC(=O)COC(=O)CCC1CCCC1	-17	-4%	-1.7	·
6	CCCCn1c(-c2ccccc2C)nc2cc3[nH]c(=O)c(C(C)C)nc3cc21	-3	-12%	4.0	4.1%
7	O=C(NNc1ncc(C(F)(F)F)cc1Cl)c1ccc(Cl)c(Cl)c1	-3	15%	0.7	·
8	CCCCCCc1c(O)c2ccccc2[nH]c1=O	-3	8%	2.8	25µM*
9	CCN1C(=O)[C@H]2[C@@H](c3ccc(SC4CCCCC4)c(OC)c3)N[C@@](Cc3ccccc3)(C(=O)OC)[C@H]2C1=O	?	·	·	35µM*
10	CCOC(=O)c1ccc(OCC2NCCc3cc(OC)c(OC)cc32)cc1 (centres undefined)	4	3%	0.9	-5.0%

nr	CtBP-E1A blk	gsp ag	gsp antag
1	·	-69%[inhibitor]	4%
2	4	-30%	5%
3	?	26%	8%
4	0	4%	2%[15.4 µM]
5	9	24%	15%
6	1	-6%	-7%
7	8	-44%[inhibitor]	-9%
8	2	0%	11%
9	-19	-12%	1%
10	-6	2%	2%

Continued:
nr	Compound	TRPV1 potentiator	Sfp inh	Menin MLL FP FL	ClpP mod
11	CCOC(=O)C1(C(=O)OCC)COC(=O)C2(CC)OC21 (centres undefined)	·	·	·	-1.6%
12	CCN1C(=O)CS/C1=N\S(=O)(=O)c1ccccc1	10	12%	3.7	·
13	CCOC(=O)c1cc2cc([N+](=O)[O-])ccc2oc1=O	-14	-17%	-0.5	·
14	Cc1cc(NC(=O)CSc2nc(C)c(C)c(=O)[nH]2)no1	-14	·	·	1.2%
15	CCOC(=O)c1nn(-c2ccc(Br)cc2)cc1C(=O)c1cccc2ccccc12	-4	16%	4.6	-0.4%
16	CN(C)S(=O)(=O)n1cnc([C@@H]2[C@H]3C(=O)OC[C@@H]3C[C@@]23N=CN(Cc2ccccc2)C3=O)c1	1	·	·	-1.1%
17	O=C(CCS(=O)(=O)Cc1ccccc1)NCC1CCCO1 (centres undefined)	2	25%	7.3	-0.3%
18	Cc1ccc(S(=O)(=O)NC(C)CCc2ccccc2)cc1C(N)=O (centres undefined)	-37	1%	2.7	-0.2%
19	Cc1ccnc(NC(=O)c2ccc(C(=O)c3ccccc3)cc2)c1	2	·	·	0.0%
20	Cc1ccc(S(=O)(=O)NC(=O)COc2ccccc2C)c(C)c1	9	5%	·	-2.6%

nr	CtBP-E1A blk	gsp ag	gsp antag
11	-21	-25%	5%
12	3	-1%[15.4 µM]	5%
13	4	15%[15.4 µM]	3%
14	10	11%[15.4 µM]	-10%
15	2	18%	0%
16	3	?	10%
17	0	-19%	-3%
18	·	-7%	-6%
19	-4	-14%[15.4 µM]	-8%
20	-5	-35%[inhibitor]	6%

Results in sequence from the list:
Nos. 15–20 in gsp ag read 18%, ?, -19%, -7%, -14%[15.4 µM], -35%[inhibitor]

Back to the main list, repeating the four entries before the break.
nr	Compound	TRPV1 potentiator	Sfp inh	Menin MLL FP FL	ClpP mod
17	O=C(CCS(=O)(=O)Cc1ccccc1)NCC1CCCO1 (centres undefined)	2	25%	7.3	-0.3%
18	Cc1ccc(S(=O)(=O)NC(C)CCc2ccccc2)cc1C(N)=O (centres undefined)	-37	1%	2.7	-0.2%
19	Cc1ccnc(NC(=O)c2ccc(C(=O)c3ccccc3)cc2)c1	2	·	·	0.0%
20	Cc1ccc(S(=O)(=O)NC(=O)COc2ccccc2C)c(C)c1	9	5%	·	-2.6%
21	O=C(Nc1ccccc1)C1CCCCN1S(=O)(=O)c1ccccc1 (centres undefined)	-4	17%	2.8	-1.7%
22	CCCOC1CCCN(C(=O)c2cc(COc3ccc(F)c(F)c3)on2)C1 (centres undefined)	-34	-4%	3.7	-3.0%
23	CCNS(=O)(=O)c1ccc(CCC(=O)NCc2ccc3c(c2)OCO3)cc1	0	5%	-3.1	·
24	O=C(Nc1ccc(F)cc1)c1nc[nH]c1C(=O)O	3	-2%	-12	0.9%
25	Brc1nc(Br)n(Cc2ccccc2)n1	-5	15%	-0.2	·
26	CC(C)CCC(C(=O)O)C(C)CC(=O)NNC(=O)c1ccco1 (centres undefined)	8&0	11%&27%	5.4&2.4	2.0%
27	O=C(NC[C@@H]1CCCO1)c1cccc2c1C(=O)c1ccc(Cl)cc1S2(=O)=O	1	·	·	-0.2%
28	CCN1CNC(=S)N(c2cccc(C)c2C)C1	?	22%	-3.1	-0.2%
29	CN1CCCC1CCNC1C2CC3CC(C2)CC1C3 (centres undefined)	10	16%	-0.6	-1.2%
30	CC(C)CC(=O)Nc1cc(C(F)(F)F)ccc1N1CCOCC1	-2	-7%	-2.4	-0.6%

nr	CtBP-E1A blk	gsp ag	gsp antag
17	0	-19%	-3%
18	·	-7%	-6%
19	-4	-14%[15.4 µM]	-8%
20	-5	-35%[inhibitor]	6%
21	-1	-5%[15.4 µM]	6%
22	-2	-25%	-3%
23	8	-17%	6%
24	·	13%	11%
25	4	1%	1%
26	7&6	-15%[15.4 µM]	13%&0%
27	3	·	-5%
28	15	2%	10%
29	6	-80%[inhibitor]	-1%
30	4	-19%	-9%

The listing continues:
nr	Compound	TRPV1 potentiator	Sfp inh	Menin MLL FP FL	ClpP mod
31	CCCCn1c(N)c(Sc2ccccc2)c(=O)[nH]c1=O	1	28%	-0.7	-3.6%
32	CC(=O)OCC(=O)c1c[nH]c2ccccc12	23	-5%	0.5	0.4%
33	N=C(N1CCCc2ccccc21)N1CCCc2ccccc21	·	·	·	·
34	O=c1c(-c2ccc(Cl)cc2)c[nH]n1-c1ccccc1	6	0%	-13	-2.9%
35	COCCCn1c(N)c(-c2nc3ccccc3n2C)c2nc3ccccc3nc21	-13	3%	9.4	1.1%
36	CC1CC(C)CN(c2nc(N(C)c3ccccc3)nc(N)c2[N+](=O)[O-])C1 (centres undefined)	-8	5%	4.2	-1.3%
37	COc1ccc(S(=O)(=O)N2CCC(C(=O)NCCC(=O)Nc3ccc(Cl)cc3)CC2)cc1	-35	-3%	·	-0.9%
38	CCN(CC)S(=O)(=O)c1ccc(OC)c(NC(=O)c2cc3c(=O)n4ccccc4nc3s2)c1	7	6%	-1.6	-3.4%
39	COC(=O)CSc1nc(C)c2c(n1)CCCC2	2	-11%	-1.1	-2.7%
40	CCOc1ccc(N/C=C/C(=O)c2ccc(C)cc2)c([N+](=O)[O-])c1	-11	20%	-17	0.8%

nr	CtBP-E1A blk	gsp ag	gsp antag
31	4	?	14%
32	3	?	8%
33	3	-39%[inhibitor]	7%
34	·	-5%	-11%
35	?	?	-4%
36	·	-40%[inhibitor]	-12%
37	-14	12%	6%
38	-25	-7%	?
39	·	-36%[inhibitor]	-6%
40	16	17%	-19%

Remaining list, next part:
nr	Compound	TRPV1 potentiator	Sfp inh	Menin MLL FP FL	ClpP mod
41	O=C(c1ccc(C(F)(F)F)cc1)C1CCCN(C(=O)CCn2cncn2)C1 (centres undefined)	10	14%	0.2	-2.4%
42	CCCCCc1cc(=O)oc2c(C(CCN(CC)CC)c3ccc(N(C)C)cc3)c(OC)cc(OC)c12 (centres undefined)	11	?	0.2	10%
43	CC(=O)Nc1ccc2c(CSc3nnc(N)s3)cc(=O)oc2c1	-4	7%	-1.3	3.7%
44	O=C(NCc1cccnc1)NC1(C(F)(F)F)Oc2ccc(Cl)cc2O1 (centres undefined)	0	0%	0.7	1.5%
45	CC(C)CNC(=S)NNC(=O)c1csc2c1CCCC2	-6	15%	1.2	0.5%
46	CC(C)(C)NC(=O)NC(=O)CN1C(=O)NC(c2ccccc2)(c2ccccc2)C1=O	2	-10%	2.2	·
47	O=C(OCCOc1cccc(Cl)c1)C1CCN(S(=O)(=O)c2ccccc2)CC1	15	3%	3.7	0.0%
48	CC(=O)Nc1ccc(S(=O)(=O)N2CCN(C(=O)c3cccnc3)CC2)cc1	9	15%	4.2	-0.1%

nr	CtBP-E1A blk	gsp ag	gsp antag
41	-4	21%	11%
42	?	·	-3%
43	·	-29%	6%
44	2	?	?
45	3	22%	-7%
46	2	?	6%
47	8	-3%	-3%
48	5	-51%[inhibitor]	9%

Part of the list above, with values under each structure:
Results follow in this order: TRPV1 potentiator | Sfp inh | Menin MLL FP FL | ClpP mod | CtBP-E1A blk | gsp ag | gsp antag
41	O=C(c1ccc(C(F)(F)F)cc1)C1CCCN(C(=O)CCn2cncn2)C1 (centres undefined)
 : 10 | 14% | 0.2 | -2.4% | -4 | 21% | 11%
42	CCCCCc1cc(=O)oc2c(C(CCN(CC)CC)c3ccc(N(C)C)cc3)c(OC)cc(OC)c12 (centres undefined)
 : 11 | ? | 0.2 | 10% | ? | · | -3%
43	CC(=O)Nc1ccc2c(CSc3nnc(N)s3)cc(=O)oc2c1
 : -4 | 7% | -1.3 | 3.7% | · | -29% | 6%
44	O=C(NCc1cccnc1)NC1(C(F)(F)F)Oc2ccc(Cl)cc2O1 (centres undefined)
 : 0 | 0% | 0.7 | 1.5% | 2 | ? | ?
